Bioassay records from PubChem BioAssay.
CapD inh: CapD enzyme inhibition; purified CapD enzyme, fluorescence intensity read-out; hits give low values; some hits fall short of the stated cut; z-score (no concentration beside the values); 140,000 compounds, 0.23% hits; AID 492967;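 active = z-score under -4 in either of two replicates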;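 note: stock transfer was 100 nL into about 40 µL; score is relative to mean and spread of the plate; one replicate is shown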
AID504770: E. coli YBA685 growth inhibition, screen for V. cholerae RctB inhibitors; E. coli YBA685 rctB-dependent plasmid, OD600 growth, 3 h; hits give low values; 130,000 compounds, 0.27% hits; z-score (concentration not given with the values); AID 504770;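 active = z-score under -2 on both plates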;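 note: wells of about 30 µL received 100 nL stock; score is relative to mean and SD of the test wells; the first replicate is given; strong numbers were not always called active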
* hit, by the source's call; i = inactive; . = no result given.

The line under a structure holds: CapD inh	AID504770
COC(=O)CC1Oc2ccccc2N(Cc2ccccc2)C1=O (stereo not drawn)
→ -0.41	-0.1
CC1(C)C/C(=N/O)c2ccoc2C1
→ .	-0.5
CC(=O)C1=C(C)OC(N)=C(C(=O)OCc2ccccc2)C12C(=O)Nc1ccccc12 (stereo not drawn)
→ -0.42	.
CSc1ccccc1NC(=O)CN1CCc2ccccc21
→ .	0.1
CC(=NCc1cccnc1)C1=C(O)c2ccccc2C1=O
→ -1.8	1.7
CN(Cc1nc2ccccc2n1C)C(=O)c1ccc(Cl)cc1
→ -0.26	0.6
CC(C)c1ccc(C2Oc3ccc(Br)cc3C3CC(c4ccc(Cl)cc4)=NN32)cc1 (stereo not drawn)
→ -0.24	.
CCN(C(=O)c1cccs1)c1ccccc1
→ 0.005	-0.1
Cc1csc(NC(=O)CSc2ccc(Cl)cc2)c1C(N)=O
→ 0.51	0.1
NC(=O)CSc1ccccc1NC(=O)c1cc(-c2cccs2)nn1-c1ccccc1
→ .	3.1
CC(C)n1c(=S)[nH]c2cc(S(C)(=O)=O)ccc21
→ -0.32	.
Cc1cc(C(=O)N/N=C/C(C)(C)C)nn1C
→ 0.47	0.55
COC(=O)Cc1nc(-c2cccs2)no1
→ -1.1	1.4
O=C(O)CCC1COc2ccccc2O1 (stereo not drawn)
→ 0.44	0.4
O=C(Nc1ccc2nonc2c1)N1CCOCC1
→ 0.4	2

(continued)
The line under a structure holds: CapD inh	AID504770
O=C(CSc1c(-c2ccccc2)c2cc(Cl)ccc2[nH]c1=O)NCc1ccco1
→ 0.95	-0.35
CCC(c1ccc(F)cc1)n1cc(C(=O)NCCc2ccco2)nn1 (stereo not drawn)
→ .	-0.95
COc1ccc(/C=C(/C#N)c2ccc(Cl)cc2)cc1OC
→ 1.4	-0.15
O=C(COC(=O)C1CC2C=CC1C2)NCc1ccco1 (stereo not drawn)
→ -0.13	-0.7
Cn1nnnc1SCC(=O)N1CC2(C)CC1CC(C)(C)C2 (stereo not drawn)
→ .	-0.2
CC(C)N1C(=O)C(C#N)C2(CCNCC2)C(C#N)=C1S (stereo not drawn)
→ -0.94	-0.9
COC(=O)Nc1ccc(S(=O)(=O)N2CCCC(C(=O)N3CCCCCC3)C2)cc1 (stereo not drawn)
→ -0.46	.
O=C(O)c1ccccc1-c1nc2ccccc2[nH]1
→ -0.77	1.5
O=C(CC12CC3CC(CC(C3)C1)C2)Nc1ccc2[nH]c(=O)[nH]c2c1
→ 0.12	0.2
O=C(NCCO)C1=C(N2CCOCC2)/C(=C\c2ccccc2)CC1
→ .	0.8
CCn1cc(C(=O)O)c(=O)c2cc(F)c(N3CCN(C(=S)Nc4ccc5c(c4)OCO5)CC3)cc21
→ 1.4	-3*
COc1ccc(-c2nnn(CCC(=O)O)n2)cc1
→ .	0
Cc1ccccc1OCCOc1ccc(/C=C2/C(=N)N3C(c4ccccc4)=CSC3=NC2=O)cc1
→ -0.28	.
O=C1CC2(CCN(C(=O)/C=C\c3ccccc3)CC2)Oc2ccccc21
→ .	-0.15
CCNS(=O)(=O)c1ccc(CCC(=O)N2CCCCC2)cc1
→ -0.51	-0.75

Taken from above.
Result of CCNS(=O)(=O)c1ccc(CCC(=O)N2CCCCC2)cc1 in AID504770: -0.75
Result of O=C(NCCO)C1=C(N2CCOCC2)/C(=C\c2ccccc2)CC1 in AID504770: 0.8
Result of O=C(CC12CC3CC(CC(C3)C1)C2)Nc1ccc2[nH]c(=O)[nH]c2c1 in AID504770: 0.2

Going on with the list:
The line under a structure holds: CapD inh	AID504770
C=C(C)n1c(=O)n(Cc2ccccc2C)c2ccccc21
→ -0.035	0.25
CCN(CC)S(=O)(=O)c1c[nH]c(C(=O)OC)c1
→ -1.4	0.8
N#Cc1ccsc1NC(=O)C1C2C=CC(C2)C1C(=O)O (stereo not drawn)
→ -0.71	0.65
CN(C)/C=N/c1nnc(SCC(=O)c2ccc(F)cc2)s1
→ -2.4	0.1
Cc1ccc2c(c1)N(C(=O)CSc1nc3ncccc3[nH]1)CCO2
→ -1.2	0.1
CCC1C(c2ccccc2)NC(c2ccccc2)CC1(O)Cc1ccccc1 (stereo not drawn)
→ -0.32	.
N#Cc1nc(Cl)ccc1Cl
→ .	-0.25
Cc1noc(C)c1NC(N)=O
→ 0.41	1.5
COc1cc(/C=c2\sc3nc4ccccc4n3c2=O)c([N+](=O)[O-])cc1OCc1ccccc1
→ 0.39	.
O=C(CCCCCn1c(=S)[nH]c2ccccc2c1=O)NCCc1c[nH]c2ccccc12
→ 0.35	.
CCOc1ccc(S(=O)(=O)N2CCN(C(=O)c3sccc3C)CC2)cc1
→ .	-0.25
CCOC(=O)c1ccc(NC(=O)CN2C(=O)S/C(=C/c3ccccc3)C2=O)cc1
→ 0.33	.
Cc1cc(C)cc(N(CC(=O)NC2CCCc3ccccc32)S(=O)(=O)c2c(C)[nH]c(=O)[nH]c2=O)c1 (stereo not drawn)
→ 0.52	0.75
O=C(NCCSc1nnnn1-c1ccccc1)c1ccccc1
→ -0.075	0.25
CCNC(=O)NCc1c(C)c(C)n(Cc2ccccc2)c1-n1cccc1
→ -0.25	.

(list continues)
The line under a structure holds: CapD inh	AID504770
CC(C)CNC(=O)/C=C/c1ccc2c(c1)OCO2
→ .	-0.5
Cn1c(=O)n(C)c(=O)n(C)c1=O
→ 0.32	-0.35
O=C(Cn1cc(CO)c2ccccc21)Nc1ccc(F)cc1
→ 0.25	-0.85
C=CCOC(=O)C1=C(C)OC(N)=C(C(=O)OC)C12C(=O)Nc1ccccc12 (stereo not drawn)
→ 0.2	-0.1
O=C1c2ccccc2C(=O)c2cc(NS(=O)(=O)c3ccc4c(c3)C(=O)c3ccccc3C4=O)ccc21
→ -2	.
CC1=C(C(=O)Nc2ccc(Cl)cc2)C(c2ccco2)C(C#N)=C(SCC(=O)Nc2cccc3ccccc23)N1 (stereo not drawn)
→ 1.2	.
CCN1C(=O)CC(n2c(C)nc3ccccc32)C1=O (stereo not drawn)
→ .	0
Cc1ccc(NC(=O)CSCC(=O)O)cc1
→ .	-0.1
N#CCn1c(CSc2nncn2-c2ccccc2)nc2ccccc2c1=O
→ .	-0.25
Cc1ccccc1-c1nc(CS(=O)(=O)CC(=O)NCc2ccc3c(c2)OCO3)c(C)o1
→ -2.2	-0.4
O=C(Nc1cccc(Cl)c1Cl)N1CCCN(Cc2ccc(Cl)cc2Cl)CC1
→ 0.42	.
O=S(=O)(c1ccccc1)c1cccc(S(=O)(=O)N2CCOCC2)c1
→ -0.38	1.3
COc1ccccc1C(=O)NCc1nnc(SCC(=O)Nc2cccc(Cl)c2)n1C
→ .	-1.1
O=C1CC(N(C(=O)c2ccco2)c2cccc(Cl)c2)C(=O)N1c1cccc(Cl)c1 (stereo not drawn)
→ -0.15	0.2
O=C(Cn1cnc2ccccc21)OCC(=O)c1ccc(Cl)s1
→ .	0.6

(cont.)
The line under a structure holds: CapD inh	AID504770
CC1(C)CC(NC(=S)NC2CC2)CC(C)(C)N1
→ 0.12	0.85
CC1(C)CC(NC2=NCCCCC2)CC(C)(C)N1
→ .	-0.25
CCS(=O)(=O)N1CCN(Cc2ccccc2)CC1
→ .	-1.1
CCc1nnc(NC(=O)c2c(O)c3ccccc3n(C)c2=O)s1
→ .	0.8
COC(=O)Cc1nc(Nc2ccc(Cl)cc2)c2c(C)c(C)sc2n1
→ 1.3	.
O=C(CCN1C(=O)/C(=C\c2cccs2)SC1=S)Nc1ccc(F)cc1
→ -0.075	.
COc1ccc(Oc2cccc(Cl)c2CNC(=O)c2ccccc2N)cc1
→ 99	-0.1
Cc1cc2oc(=O)cc(CN(C)c3ccccc3)c2cc1C
→ .	0.55
CN(C)c1cc(C(=O)N2CCN(C(=O)Nc3ccc(F)cc3F)CC2)nc(N(C)C)n1
→ 0.075	.
CN(c1ccc(F)cc1)S(=O)(=O)c1ccc2[nH]cc(C(=O)O)c(=O)c2c1
→ 0.24	2.9
CCNS(=O)(=O)c1ccc(NC(=O)c2nc3nc(C)cc(C(F)F)n3n2)cc1
→ 0.93	-1
Cc1onc(-c2c(Cl)cccc2Cl)c1C(=O)NC1CCN(Cc2ccccc2)CC1
→ 0	.
N#CC1=C(N)Oc2n[nH]c(-c3ccc(Br)cc3)c2C1c1ccc(OC(=O)c2ccco2)cc1 (stereo not drawn)
→ 0.07	.
O=C(Nc1ccc2nc[nH]c2c1)C1CCCCC1
→ .	1.6
O=S(=O)(Nc1ccc(Oc2ncnc3cc(Cl)ccc23)nc1)c1ccc(-c2ccccn2)s1
→ -1.2	1.1

Structures listed so far with two or more sulfur atoms (8):
The line under a structure holds: CapD inh	AID504770
Cc1csc(NC(=O)CSc2ccc(Cl)cc2)c1C(N)=O
→ 0.51	0.1
NC(=O)CSc1ccccc1NC(=O)c1cc(-c2cccs2)nn1-c1ccccc1
→ .	3.1
CC(C)n1c(=S)[nH]c2cc(S(C)(=O)=O)ccc21
→ -0.32	.
CN(C)/C=N/c1nnc(SCC(=O)c2ccc(F)cc2)s1
→ -2.4	0.1
CCOc1ccc(S(=O)(=O)N2CCN(C(=O)c3sccc3C)CC2)cc1
→ .	-0.25
O=S(=O)(c1ccccc1)c1cccc(S(=O)(=O)N2CCOCC2)c1
→ -0.38	1.3
O=C(CCN1C(=O)/C(=C\c2cccs2)SC1=S)Nc1ccc(F)cc1
→ -0.075	.
O=S(=O)(Nc1ccc(Oc2ncnc3cc(Cl)ccc23)nc1)c1ccc(-c2ccccn2)s1
→ -1.2	1.1

Remaining list, next part.
The line under a structure holds: CapD inh	AID504770
CN(C)C(=O)Oc1nnc(SCC(=O)c2ccc3c(c2)OCCO3)n1C1CC1
→ 1	0.4
CC(C(=O)c1ccccc1)S(=O)(=O)c1ccccc1 (stereo not drawn)
→ 0.58	0.8
COc1ccccc1N1CCN(CC(O)COc2cccc3ccccc23)CC1 (stereo not drawn)
→ -0.01	.
O=C(c1ccc(-n2cc(-c3ccncn3)cn2)cc1)N1CCN(Cc2ccccc2)CC1
→ 0.62	.
O=C(O)c1cc2cc(Cl)ccc2[nH]c1=O
→ .	0
CN(C)C(CNc1ncnc2sccc12)c1cccs1 (stereo not drawn)
→ .	0.1
CC[C@H](C)C(=O)O[C@H]1CCC=C2C=C[C@H](C)C(CCC3C[C@@H](O)CC(=O)O3)[C@H]21 (stereo partly drawn)
→ -0.43	.
CC(O)CNc1nc2ccccc2nc1-c1ccccc1 (stereo not drawn)
→ 42	-0.9
Clc1cccc(Nc2nc3nonc3nc2N2CCOCC2)c1
→ -0.42	.
O=C(O)c1ccc(NCc2nc3ccccc3n2Cc2ccccc2)cc1
→ 1.4	0
COc1cccc(C2C3=C(CC(C)(C)CC3=O)NC3=C2C(=O)CC(C)(C)C3)c1
→ 68	-0.7
Nc1c(C2=NCCO2)nnn1Cc1ccccc1
→ 0.26	0.7
O=C1NC(=Nc2cccc(Cl)c2)S/C1=C/c1cccs1
→ -0.01	-0.8
CC(=O)N1C(=O)C2(C(C#N)=C(N)Oc3n[nH]c(C)c32)c2ccccc21 (stereo not drawn)
→ 0.04	.
Cc1ccc(N(C(=O)c2ccco2)C(C(=O)NC2CCCC2)c2ccc(N(C)C)cc2)c(C)c1 (stereo not drawn)
→ .	0.95

Next section.
The line under a structure holds: CapD inh	AID504770
C=CCN(CC=C)C(=S)Nc1ccc2nc(C)c(C)nc2c1
→ .	-0.2
O=C1CCCCC(=O)N(c2ccccc2)c2ccccc21
→ -0.055	-0.6
CC(NC(=O)c1cc2sccc2s1)c1ccccc1 (stereo not drawn)
→ -1	-0.2
COc1ccc(/C=C2\N=C(c3ccc(-c4ccccc4)cc3)OC2=O)c(OC)c1OC
→ 0.71	.
CC1(C(=O)O)COC(c2ccc(Cl)cc2)OC1 (stereo not drawn)
→ .	0
C=CCNC(=O)c1cccc(Oc2ccccc2)c1
→ -0.45	0.25
CCOc1ccc(NC(=O)Nc2nc(-c3ccc(Oc4ccccc4)cc3)cs2)cc1
→ -0.36	.
CCOC(=O)c1ccccc1NC(=O)CSc1nc2n[nH]c(C)c2c(=N)n1-c1ccc(OC)cc1
→ -0.005	.
CCOc1cccc2cc(C(=O)Nc3ccc(Cl)cc3Cl)c(=O)oc12
→ i	-0.4
CSc1nnc(-c2c[nH]c3ccccc23)n1-c1ccc(F)cc1
→ -0.56	-0.35
O=C(CN1C(=O)c2ccccc2C1=O)ON=C1CCCCC1
→ 0.17	0.7
N#Cc1cc2c(ccc3ccccc32)oc1=N
→ .	-0.2
COC(=O)c1ccc(-n2c(C)ccc2C)cc1
→ 0.17	0.5
COC(=O)/C(=C(/O)CSc1nnc(-c2ccc(C)cc2)o1)c1nc2ccccc2[nH]1
→ .	-0.2
O=C(O)CCC(=O)N1CCc2cc(S(=O)(=O)NCc3ccccc3)ccc21
→ -1.6	0.8

Next results follow.
The line under a structure holds: CapD inh	AID504770
Cc1nn(Cc2ccccc2Cl)c2sc(C(=O)NCCN3CCOCC3)cc12
→ .	-4
CC1CCC(NC(=O)CN2C(=O)CSc3ncccc32)CC1 (stereo not drawn)
→ 1	0.75
O=C(CS(=O)(=O)c1cn(Cc2ccc(Cl)cc2)c2ccccc12)N1CCc2ccccc21
→ 0.69	0.8
COc1cc(CC(=O)OCC(=O)N(C)C2CCCCC2)cc(OC)c1OC
→ .	2
CC1CN(S(=O)(=O)c2ccc(N3C(=O)CC4(CCCC4)C3=O)c(Cl)c2)CC(C)O1 (stereo not drawn)
→ 0.43	0.15
CSc1n[nH]c(N)c1S(=O)(=O)c1ccccc1
→ 0.39	-0.05
CN(CCOC(=O)c1c(F)cccc1Cl)c1ccc(C#N)cn1
→ 6.6	0.35
CCOC(=O)c1cccc(NC(=O)Cn2c(=O)oc3cc(S(=O)(=O)N4CCCC4)ccc32)c1
→ -0.95	-0.1
COc1ccc(C(=O)OCC(=O)n2c(C)c(C)c3ccccc32)cc1
→ 0.14	0
COc1ccccc1C1C2=C(CCCC2=O)Nc2ccc3ncccc3c21 (stereo not drawn)
→ 12	-0.7
O=C(CCSc1ccccc1C(=O)O)Nc1ccc(F)cc1
→ -0.21	0.2
CC1Cc2ccccc2N1C(=O)c1ccnc(C(C)(C)C)c1 (stereo not drawn)
→ 0.28	-0.7
